Screening results deposited in PubChem by Sanford-Burnham Center for Chemical Genomics.
MT1-MMP promoter = MT1-MMP gene expression reporter suppression – cell-based, luciferase reporter, luminescence (AID 618); MT1-MMP promoter luciferase reporter cells, luminescence; calls from a first round at 10 µM; hits with a dose series show EC50 in µM; 87,000 compounds, 0.62% hits;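 active = over half of the reporter light lost at 10 µM or EC50 under 50 µM; inactive = the rest and hits that failed the dose series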;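 also: actives suppress MT1-MMP promoter-driven transcription so potencies describe inhibitors; HT1080 fibrosarcoma cells; overnight exposure; toxic or luciferase-blocking compounds were not removed from the actives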
Calls only; i = inactive. This is a subset; rates above refer to the full screens.

| structure | MT1-MMP promoter |
| --- | --- |
| N#Cc1ccc(C23CC4(C2)[C@H](CN(CC2CCCCC2)[C@@H]4c2ccccc2)C3c2ccc(C(F)(F)F)cc2)cc1 (stereo not given in full) | i |
| COC(=O)c1ccc(C(NC(=O)OCc2ccccc2)/C(=C/[C@@H](C)C(=O)Nc2ccccc2)C(F)(F)F)cc1 (stereo not given in full) | i |
| COC(=O)c1c(-c2ccc(Br)cc2)noc1N | i |
| COc1ccc(NC(=O)Cn2nnc(C(=O)NCc3ccco3)c2N)c(OC)c1 | i |
| CC(=O)N(CCCCN1C(=O)c2ccccc2C1=O)c1ccc(C)cc1 | i |
| OC1c2ccccc2-c2nc3ccccc3cc21 (stereo not given) | i |
| COC(=O)[C@@]1(Cc2ccc(F)cc2)[C@H]2c3cc(C(=O)N(C)C)n(Cc4ccccc4)c3C[C@H]2CN1C(=O)c1ccccc1 | i |
| Cc1ccc(CNC(=O)C2(CC(C)C)C=CCN2C(=O)c2ccccc2)o1 (stereo not given) | i |
| Cc1ccc(Cl)cc1N1CCN(C(=O)Cc2cn(C)c3ccccc23)CC1 | i |
| Cc1ccc(N(C)C(=O)N2CCN(S(=O)(=O)c3ccc4ccccc4c3)CC2)cc1 | i |
| CCCN(CCC)S(=O)(=O)c1ccc(C(=O)Nc2ccc(OCC(=O)N3CCOCC3)cc2)cc1 | i |
| CC1=C(C(=O)OC(C)(C)C)C(c2ccc(Br)cc2)NC(=O)N1CCCC(=O)O (stereo not given) | i |
| CC(=O)c1cccc(NC(=O)Nc2ccc(C)cc2)c1 | i |
| CNC(=O)c1ccc(-c2ccc(F)cc2)s1 | i |
| Cc1cc(C(=O)CSc2nnnn2-c2ccccc2)c(C)n1CCc1ccccc1 | i |
| CN(C)CCNC(=O)CCCNC(=O)Cn1cnc2sc3c(c2c1=O)CCCC3 | i |
| COc1ccc(-c2nc(N)n(C(=O)Cc3ccccc3)n2)cc1 | i |
| Cc1nnc(SCc2nc(N)nc(Nc3ccccc3)n2)s1 | i |
| Cc1cccc(N2CCN(C(=O)Cn3cccc3C(=O)c3ccccc3)CC2)c1C | i |
| CC(C)CCNC(=O)CSc1nc2ccsc2c(=O)n1NC(=O)c1ccccc1 | i |
| Cc1ccc(CCN2CC(C(=O)N3CCN(c4ccc(F)cc4)CC3)CC2=O)cc1 (stereo not given) | i |
| CNC(=O)c1ccc(CNC(=O)OCC(F)(F)F)cc1 | i |
| COc1ccc(N(CC(=O)Nc2ccc(S(=O)(=O)N3CCCCC3)cc2)S(C)(=O)=O)cc1OC | i |
| COc1ccccc1CNC(=O)c1cnn2c(C(F)F)cc(C)nc12 | i |
| O=C(O)C1CCCN(S(=O)(=O)c2ccc(Br)cc2)C1 (stereo not given) | i |
| COc1cc(C(=O)NCCN2CCOCC2)cc(OC)c1OC | i |
| CC1CCN(c2c([N+](=O)[O-])nn(-c3ccc4c(c3)OCCO4)[n+]2[O-])CC1 | i |
| C/C(=C\C1CCCCC1)C(NC(=O)c1ccc(C(F)(F)F)cc1)c1ccc(-c2ccccc2)cc1 (stereo not given) | i |
| O=C1N=C(c2ccccc2)S/C1=C\c1cccs1 | i |
| N#Cc1ccc(C23CC4(C2)[C@H](CN(Cc2ccc(C(F)(F)F)cc2)[C@@H]4c2ccccc2)C3c2ccc(C(F)(F)F)cc2)cc1 (stereo not given in full) | i |

Already shown: an excerpt of the list.
| structure | MT1-MMP promoter |
| --- | --- |
| CC(=O)N(CCCCN1C(=O)c2ccccc2C1=O)c1ccc(C)cc1 | i |
| OC1c2ccccc2-c2nc3ccccc3cc21 (stereo not given) | i |
| COC(=O)[C@@]1(Cc2ccc(F)cc2)[C@H]2c3cc(C(=O)N(C)C)n(Cc4ccccc4)c3C[C@H]2CN1C(=O)c1ccccc1 | i |
| Cc1ccc(CNC(=O)C2(CC(C)C)C=CCN2C(=O)c2ccccc2)o1 (stereo not given) | i |
| Cc1ccc(Cl)cc1N1CCN(C(=O)Cc2cn(C)c3ccccc23)CC1 | i |
| Cc1ccc(N(C)C(=O)N2CCN(S(=O)(=O)c3ccc4ccccc4c3)CC2)cc1 | i |
| CCCN(CCC)S(=O)(=O)c1ccc(C(=O)Nc2ccc(OCC(=O)N3CCOCC3)cc2)cc1 | i |
| CC1=C(C(=O)OC(C)(C)C)C(c2ccc(Br)cc2)NC(=O)N1CCCC(=O)O (stereo not given) | i |
| CC(=O)c1cccc(NC(=O)Nc2ccc(C)cc2)c1 | i |
| CNC(=O)c1ccc(-c2ccc(F)cc2)s1 | i |
| Cc1cc(C(=O)CSc2nnnn2-c2ccccc2)c(C)n1CCc1ccccc1 | i |
| CN(C)CCNC(=O)CCCNC(=O)Cn1cnc2sc3c(c2c1=O)CCCC3 | i |
| COc1ccc(-c2nc(N)n(C(=O)Cc3ccccc3)n2)cc1 | i |
| Cc1nnc(SCc2nc(N)nc(Nc3ccccc3)n2)s1 | i |
| Cc1cccc(N2CCN(C(=O)Cn3cccc3C(=O)c3ccccc3)CC2)c1C | i |
| CC(C)CCNC(=O)CSc1nc2ccsc2c(=O)n1NC(=O)c1ccccc1 | i |
| Cc1ccc(CCN2CC(C(=O)N3CCN(c4ccc(F)cc4)CC3)CC2=O)cc1 (stereo not given) | i |
| CNC(=O)c1ccc(CNC(=O)OCC(F)(F)F)cc1 | i |
| COc1ccc(N(CC(=O)Nc2ccc(S(=O)(=O)N3CCCCC3)cc2)S(C)(=O)=O)cc1OC | i |
| COc1ccccc1CNC(=O)c1cnn2c(C(F)F)cc(C)nc12 | i |
| O=C(O)C1CCCN(S(=O)(=O)c2ccc(Br)cc2)C1 (stereo not given) | i |
| COc1cc(C(=O)NCCN2CCOCC2)cc(OC)c1OC | i |
| CC1CCN(c2c([N+](=O)[O-])nn(-c3ccc4c(c3)OCCO4)[n+]2[O-])CC1 | i |
| C/C(=C\C1CCCCC1)C(NC(=O)c1ccc(C(F)(F)F)cc1)c1ccc(-c2ccccc2)cc1 (stereo not given) | i |
| O=C1N=C(c2ccccc2)S/C1=C\c1cccs1 | i |

Further compounds.
| structure | MT1-MMP promoter |
| --- | --- |
| Cc1cc(SCCOc2ccc(Br)cc2)nc(N)n1 | i |
| CCOC(=O)C1CCCN(C(=O)Nc2ccccc2)C1 (stereo not given) | i |
| COC(=O)C1=C(C)N(CCCC(=O)O)C(=O)NC1c1ccccc1OS(=O)(=O)c1ccccc1[N+](=O)[O-] (stereo not given) | i |
| O=C(NCc1ccc2c(c1)OCO2)c1ccc(Cl)c(S(=O)(=O)N2CCOCC2)c1 | i |
| CCOC(=O)CSc1nnc(NC(=O)c2cccc(S(=O)(=O)N3CCCCCC3)c2)s1 | i |
| CN1CCN(CC(=O)N2c3ccccc3C(C)(c3ccc(Cl)cc3)CC2(C)C)CC1 (stereo not given) | i |
| COc1ccc(C(=O)NC(=S)NCc2ccc(-c3nc4ccccc4o3)cc2)cc1OC | i |
| Cc1cc(C)c(S(=O)(=O)c2ccccc2)c(OC(=O)c2c(Cl)cccc2Cl)n1 | i |
| Cc1ccc(S(=O)(=O)c2nc(NCCN(C)C)sc2Cl)cc1 | i |
| CCC#CCOCC(=O)Nc1ccccc1 | i |
| S=C(Nc1ccccc1)Nc1ccccc1C#Cc1ccccc1 | i |
| O=C(O)Cn1c(SCc2cccc3ccccc23)nc2ccccc21 | i |
| COc1ccc(Cl)cc1C(=O)NCCN(C)C | i |
| CCC(C)c1ccc(NC(=O)c2cccs2)cc1 (stereo not given) | i |
| CC1=CCC(C(=O)O)(C(=O)N/N=C/c2cccs2)C(c2ccc(Cl)cc2)C1 (stereo not given) | i |
| Cc1ccc(C(=O)c2ccc([N+](=O)[O-])cc2)cc1C | i |
| CC1CC(C)CN(CCCNC(=O)CCNC(=O)Cn2ccc3ccccc3c2=O)C1 (stereo not given) | i |
| Cn1c(=O)c(C(=O)COC(=O)c2cc(-c3ccco3)nc3ccccc23)c(N)n(CC2CC2)c1=O | i |
| CNC(=O)C1(CC(C)C)C=CCN1C(=O)c1ccccc1 (stereo not given) | i |
| COc1ccc(Oc2cc(C)c3cccc(C)c3n2)cc1 | i |

SMILES: Cc1c(=O)n(OCc2cccc(F)c2)c2ccccc2[n+]1[O-]
  MT1-MMP promoter: i
SMILES: CSc1ccc(-c2nc3cnccn3c2Nc2ccc3c(c2)OCO3)cc1
  MT1-MMP promoter: i
SMILES: COC(=O)[C@@]1(Cc2ccc(OC)cc2)[C@H]2c3cc(C(=O)N(C)C)n(C[C@H](O)CO)c3C[C@H]2CN1C(=O)c1ccccc1
  MT1-MMP promoter: i
SMILES: COC(=O)C1=C(O)/C(=C\c2ccc(CNC(=O)C(=O)Nc3ccc(C)c(C)c3)o2)N=C1C
  MT1-MMP promoter: i
SMILES: CCCC[C@H]1C[C@@H]1[C@@H]1N(P(=O)(c2ccccc2)c2ccccc2)[C@](CO)(c2ccccc2)CC12CC2
  MT1-MMP promoter: i
SMILES: CCNS(=O)(=O)c1ccc(NS(C)(=O)=O)cc1
  MT1-MMP promoter: i
SMILES: CCOC(=O)C1=C(CCc2ccccc2)NC(=O)NC1c1ccc(C#N)cc1 (stereo not given)
  MT1-MMP promoter: i
SMILES: COC(=O)Cn1c(CCS(=O)(=O)c2ccc(Cl)cc2)nc2ccccc21
  MT1-MMP promoter: i
SMILES: Cc1ccc(SCCC(=O)Nc2c(C)n(C)n(-c3ccccc3)c2=O)cc1
  MT1-MMP promoter: i
SMILES: O=C(NC1CCCCCCC1)NC1CCCCC1
  MT1-MMP promoter: i

SMILES: CCOC(=O)C1CCCN(C(=O)c2cc(Nc3ccc(OC)cc3)nc3ccccc23)C1 (stereo not given)
  MT1-MMP promoter: i
SMILES: CCC(C)n1c(SCC(=O)Nc2ccccc2C(F)(F)F)nc2ccsc2c1=O (stereo not given)
  MT1-MMP promoter: i
SMILES: O=C(NCC1CCCO1)C1CC(=O)N(C2CCCC2)C1 (stereo not given)
  MT1-MMP promoter: i
SMILES: CCN(CC)C(=O)C1CCCN(Cc2sccc2C)C1 (stereo not given)
  MT1-MMP promoter: i
SMILES: COC(=O)C1CCN(C(=O)c2cc3ccccc3oc2=O)CC1
  MT1-MMP promoter: i
SMILES: Clc1ccc(-c2n[nH]c3c2CCC3)cc1Cl
  MT1-MMP promoter: i
SMILES: Cc1ccc(CNC(=O)c2ccc3c(=O)n(CC4CCCO4)c(=S)[nH]c3c2)cc1 (stereo not given)
  MT1-MMP promoter: i
SMILES: CC1(C)COC(c2cccn2Cc2ccccc2Cl)=N1
  MT1-MMP promoter: i
SMILES: CN(C)c1nc(N)nc(CSc2ccccn2)n1
  MT1-MMP promoter: i
SMILES: Cc1ccc(S(=O)(=O)N(C)c2ccc(C(=O)N3CCN(Cc4ccc5c(c4)OCO5)CC3)cc2)cc1
  MT1-MMP promoter: i

SMILES: O=C(Nc1cc(C(F)(F)F)ccc1N1CCCCC1)c1ccc(Br)o1
  MT1-MMP promoter: i
SMILES: O=C(CCOc1ccccc1)Nc1ccccc1
  MT1-MMP promoter: i
SMILES: CCC1=C2CC[C@H]3C(=O)N(CC)C(=O)[C@H]3[C@H]2[C@@]2(Cc3ccccc3)C(=NCCOC)OC(=O)N2C1=O
  MT1-MMP promoter: i
SMILES: CCCCN(CC)C(=O)Cn1c(=O)sc2ccccc21
  MT1-MMP promoter: i
SMILES: CCOc1ccc(CCNC(=O)CCc2c(C)nc3ncnn3c2C)cc1OCC
  MT1-MMP promoter: i
SMILES: CCCCCCN(C(=O)CCCCCN1C(=O)NC(c2ccccc2-c2ccccc2)C(C(=O)OCc2ccccc2)=C1C)C(C(=O)NCCCC)c1ccc(OCC(=O)OC)c(C(=O)OC)c1 (stereo not given)
  MT1-MMP promoter: i
SMILES: CCOC(=O)C(=O)/C(C#N)=C/Nc1ccccc1
  MT1-MMP promoter: i
SMILES: COc1cc2nc3c(c([Si](C)(C)C(C)(C)C)c2cc1OC)Cn1c-3cccc1=O
  MT1-MMP promoter: i
SMILES: O=C(NCc1ccco1)c1ccc2c(c1)C(=O)N(C1CCCCC1)C2=O
  MT1-MMP promoter: i
SMILES: CCNC(=O)[C@H](C)/C=C/C(NC(=O)OCc1ccccc1)c1ccc(C(=O)OC)cc1 (stereo not given in full)
  MT1-MMP promoter: i

SMILES: CC(=O)NCC(=O)N(C)C(C(=O)Nc1ccc(C(C)C)cc1)c1ccccc1 (stereo not given)
  MT1-MMP promoter: i
SMILES: C[C@@H](C(=O)NCc1ccc(S(C)(=O)=O)cc1)[C@H]1C[C@]1(C)[C@H](NC(=O)OCc1ccccc1)c1ccccc1
  MT1-MMP promoter: i
SMILES: C=C(CC1([C@@H](NP(=O)(c2ccccc2)c2ccccc2)[C@H]2C[C@@H]2CCN(C(=O)OCC)S(=O)(=O)c2ccc(C)cc2)CC1)c1ccccc1
  MT1-MMP promoter: i
SMILES: O=C(Nc1ccc2c(c1)OCO2)NC1(C(F)(F)F)Oc2ccccc2O1
  MT1-MMP promoter: i
SMILES: COc1ccc(C2CC(=O)Nc3cc(C)c(C)cc32)c(OC)c1OC (stereo not given)
  MT1-MMP promoter: i
SMILES: C/C(=N\OCC(=O)N/N=C/c1ccc(C)cc1O)c1cccs1
  MT1-MMP promoter: i
SMILES: O=C(O)CCC(NC(=O)C(Cc1ccc2c(c1)OCO2)NC(=O)c1ccccc1)C(=O)O (stereo not given)
  MT1-MMP promoter: i
